# hNpr1 antagonist: antagonists of human natriuretic peptide receptor Npr1; AID 1347048; HEK293 hNpr1 GloSensor cGMP, ANP-stimulated luminescence; P16066; Potency, µM (titrated, usually from 46.3 µM), inactives show at the top dose activity change, negative = inhibition, usual class: inhibitors; actives 1.6% (n = 76,000); active = well fitted inhibition curve with a large enough effect; inconclusive = small, poorly fitted or top-dose-only effect; inactive = no such curve, though single readings can be large or run the other way;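 note: nearly all actives have a fitted effect of over 60% in size; nearly all hits also lower the signal before the agonist is added; a reference antagonist and vehicle were the controls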
# Target sequence (P16066 whole entry, looked up): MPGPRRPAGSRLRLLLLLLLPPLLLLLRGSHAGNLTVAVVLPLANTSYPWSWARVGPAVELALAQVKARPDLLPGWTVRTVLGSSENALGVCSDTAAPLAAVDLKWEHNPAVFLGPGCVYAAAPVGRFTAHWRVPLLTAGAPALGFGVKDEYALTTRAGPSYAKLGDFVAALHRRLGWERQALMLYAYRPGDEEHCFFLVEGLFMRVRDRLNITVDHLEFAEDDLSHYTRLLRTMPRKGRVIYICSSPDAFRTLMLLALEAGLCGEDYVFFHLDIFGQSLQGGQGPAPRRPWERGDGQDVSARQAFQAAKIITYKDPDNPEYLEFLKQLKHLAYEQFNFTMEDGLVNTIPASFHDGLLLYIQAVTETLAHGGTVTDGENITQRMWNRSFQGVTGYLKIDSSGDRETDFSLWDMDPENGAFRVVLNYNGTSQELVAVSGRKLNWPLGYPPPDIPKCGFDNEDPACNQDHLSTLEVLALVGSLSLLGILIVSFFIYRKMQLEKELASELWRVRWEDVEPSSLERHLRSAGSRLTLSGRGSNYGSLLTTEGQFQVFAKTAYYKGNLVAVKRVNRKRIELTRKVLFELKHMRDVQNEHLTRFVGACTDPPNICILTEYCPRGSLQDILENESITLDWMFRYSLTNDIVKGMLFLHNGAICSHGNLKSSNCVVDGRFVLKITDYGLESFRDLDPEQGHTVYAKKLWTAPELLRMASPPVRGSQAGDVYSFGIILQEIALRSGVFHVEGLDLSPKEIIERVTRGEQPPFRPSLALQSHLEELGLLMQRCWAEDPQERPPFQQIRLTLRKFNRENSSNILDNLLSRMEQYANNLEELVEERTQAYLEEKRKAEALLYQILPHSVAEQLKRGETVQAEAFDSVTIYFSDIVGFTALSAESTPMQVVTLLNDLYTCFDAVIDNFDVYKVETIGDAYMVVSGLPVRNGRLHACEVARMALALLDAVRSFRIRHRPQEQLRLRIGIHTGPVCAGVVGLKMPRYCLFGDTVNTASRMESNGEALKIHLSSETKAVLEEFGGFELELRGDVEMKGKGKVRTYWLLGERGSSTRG
#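 Compound pre-incubated 30 min at room temperature on GloSensor-loaded HEK293 cells stably carrying hNpr1 and the pGS-40F cGMP biosensor. Stimulation uses hNppA at 0.1 nM final; luminescence is taken at baseline and 20 min post-agonist.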
# * = called active by the depositor; ? = inconclusive; [ ] = dose if it differs, or a comment. % is set by controls: 0 for no effect and ±100 for the full control effect; potency is the fitted concentration of half-maximal effect.
SMILES	hNpr1 antagonist
Cc1ccc(C(=O)NC2CCc3nnc(C4CC4)n3CC2)c(=O)[nH]1 (centres undefined)	-1%
Cc1ccccc1CCC(=O)N1CCC2(CC1)C(C(=O)O)CC(=O)N2C (centres undefined)	16%
Cc1ccc(C2(O)CCN(c3cc(C(F)(F)F)ccn3)CC2)nc1	-14%
CCCN1C(=O)C(CC(=O)NC(C)CC)Sc2ncccc21 (centres undefined)	3%
Cc1cnc(C)n1C1CCN(S(=O)(=O)c2ccc(C#N)cc2)CC1	8%
CN(C)c1nccnc1OC1CCN(C(=O)c2ccnn2C)C1 (centres undefined)	4%
O=C(NCC1CC1)c1cccc(OC2CN(C3CCN(Cc4ccccc4)CC3)C2)c1	-3%
O=C(C1CCOC1)N1CCc2onc(C(c3ccccc3)c3ccccc3)c2C1 (centres undefined)	0%
OC[C@@H]1CN(Cc2ccco2)C[C@H]1c1ccccn1	-7%
CCn1ccc(C(=O)N2CCC(c3nn(C)c(=O)n3CCc3ccccc3)CC2)n1	2%
COc1ccc2nc3n(c2c1)[C@@H](CNS(=O)(=O)c1ccccc1)COC3	-15%[70.6 µM]
O=C(c1ccc(-c2ccc(N3CCCCC3)nc2)cc1)N1CCCC1	?
Cc1ccsc1C(=O)NCCc1noc(-c2ccccc2)n1	-12%
CCc1noc(C)c1C(=O)N1CCCC(CO)(CC=C(C)C)C1 (centres undefined)	-4%
C=CCN1CCC2(CCC1=O)CN(C1CCN(CC)CC1)CCN2C (centres undefined)	-1%
O=C(NCc1ccc(F)cc1)N1CCCC(Cc2noc(-c3ccccn3)n2)C1 (centres undefined)	-1%
CNc1nc(C(=O)N2C[C@@H](C(=O)O)[C@H](c3ccc4c(c3)OCO4)C2)cs1	0%
CC(=O)Nc1ccc(S(=O)(=O)N[C@H]2CO[C@H]3[C@@H]2OC[C@@H]3n2nnnc2Oc2cccc(N(C)C)c2)cc1	6%
O=C(C1CC1)N1CCCC(c2nnnn2-c2ccccc2)C1 (centres undefined)	0%
CCCN1CCC2(CCN(C(=O)c3cccc(OC)c3)CC2)Oc2ccccc21	18%
COc1cccc(CC(=O)Nc2ccc3c(N4CCCCC4)ncnc3c2)c1	?
CCOc1ccccc1C(=O)N[C@@H]1CN(c2ncccn2)C[C@H]1CO	-12%
COc1ccc(CN2CCc3nc(C(=O)Nc4cccnc4)oc3CC2)cc1OC	-17%[70.6 µM]
CNC(=O)[C@@H]1CN(C(=O)c2nn(C)c3ccccc23)C[C@H]1CO	2%
C[C@@]12CO[C@@H](COc3ccccc3)O[C@@H]1CC[C@]1(C)C2CC[C@@H](O)[C@H]1CC(=O)NCc1cc(F)cc(F)c1 (some centres undefined)	?
CCc1ccccc1NC(=O)Cn1c(N2CCc3ccccc3C2)nc(C)cc1=O	?
COCCN1C(=O)CS(=O)C12CCN(S(=O)(=O)c1ccc(F)cc1)CC2 (centres undefined)	-1%
O=C(c1ccccc1)N1CCC2(CC1)Cc1ccccc1NC2=O	0%[70.6 µM]
CN1CCN(C2CCOC3(CCN(S(=O)(=O)c4cn(C)cn4)CC3)C2)CC1 (centres undefined)	17%
CCCC(=O)N1CCC(N2C(=O)C3(CCCCC3)C2c2ccncc2)CC1 (centres undefined)	2%

# Exported with the structure last: entries from further up
hNpr1 antagonist | structure
2% | CNC(=O)[C@@H]1CN(C(=O)c2nn(C)c3ccccc23)C[C@H]1CO
? | C[C@@]12CO[C@@H](COc3ccccc3)O[C@@H]1CC[C@]1(C)C2CC[C@@H](O)[C@H]1CC(=O)NCc1cc(F)cc(F)c1 (some centres undefined)
? | CCc1ccccc1NC(=O)Cn1c(N2CCc3ccccc3C2)nc(C)cc1=O
-1% | COCCN1C(=O)CS(=O)C12CCN(S(=O)(=O)c1ccc(F)cc1)CC2 (centres undefined)
0%[70.6 µM] | O=C(c1ccccc1)N1CCC2(CC1)Cc1ccccc1NC2=O

# Next part.
SMILES	hNpr1 antagonist
O=S(=O)(c1ccc2c(c1)OCCO2)N1CCC2(CCNCC2)C1	6%
O=c1[nH]c(C2CCN(Cc3ccc(C(F)(F)F)cc3)CC2)nn1Cc1ccccc1	6%
CCN1C=C(C(=O)O)C(C)=NS1(=O)=O	-4%
COc1ccccc1-c1nccc2c(=O)cc(C3=CCOCC3)oc12	-1%[70.6 µM]
O=C(N[C@@H]1CN(C(=O)Nc2ccc(F)cc2)CCC[C@H]1O)c1ccc(O)cc1	-9%[70.6 µM]
Cc1noc(C)c1S(=O)(=O)N1CCC2(CC1)CC(OCC1CC1)CCO2 (centres undefined)	-12%
CC(=O)c1c(C)nn(CC(=O)N2CCC(c3cc(C(C)C)n[nH]3)CC2)c1C	-1%
Cc1noc([C@@H]2CN(Cc3cc(Cl)ccc3F)C[C@H]2CO)n1	-3%
O=C(Cc1cccc(F)c1)N1CCC[C@H]1c1nc(-c2ccc(F)cc2)no1	-15%
COc1ccc(C(=O)N2CCN(Cc3ccc(=O)n(C)c3)CC2)cc1F	2%
O=C(c1ccoc1)N1CCCC(c2nc(C3CCOCC3)no2)C1 (centres undefined)	-12%
COCCN1CCCC2(CCN(C(=O)C3(C)CCCCC3)C2)C1=O (centres undefined)	-6%
COCC1CN(C(C)=O)CC12CCN(C(=O)c1cc(Cl)ccc1OC)CC2 (centres undefined)	1%
Cc1ccccc1NCc1nc2c(n1Cc1ccccc1)C(=O)N(CCOc1ccccc1)CCN2	-19%
CC(=O)c1ccc(NC(=O)O[C@@H]2CO[C@H]3[C@@H]2OC[C@@H]3NC(=O)c2ccc(C)cc2)cc1	-26%[70.6 µM]
COc1cc(CNCCCO)ccc1OCC(O)CN1CCSCC1 (centres undefined)	3%
CC(C)S(=O)(=O)N1CCC(Nc2cccnc2)C1 (centres undefined)	4%
O=C(Cn1cccc1-c1nc(-c2ccccc2)no1)Nc1cccc(Cl)c1	-5%
COC(=O)CN1C(=O)[C@@H]2C[C@@H](O)CN2C2(CN(Cc3ccc(F)cc3)C2)C1=O	0%[70.6 µM]
O=C1CCN(C(=O)c2ccsc2)CCCOCCN1	0%
CCOC(=O)C1=CN(CC(=O)Nc2ccc(OCC)cc2)S(=O)(=O)N=C1C	5%
COc1ccc(C(=O)N2C(C(=O)NCc3ccccc3)COC23CCN(C(=O)C(C)(C)C)CC3)cc1 (centres undefined)	1%
Cc1ccc(-c2ccc3nnc(CNC(=O)c4cccc(C#N)c4)n3n2)cc1	-3%
Cc1cccc(C(C(=O)N(C)Cc2ccon2)N(C)C)c1 (centres undefined)	-1%
CCOc1ccc2c(n1)CCN(C(=O)c1ccc(C)s1)C2	2%
OC[C@H]1CCN(c2nnnn2-c2ccc(Oc3ccccc3)cc2)C[C@H]1O	-2%
COc1ccccc1C(=O)N1CCn2c(nn(-c3ccc(F)cc3F)c2=O)C1	3%
CC(C)S(=O)(=O)N1CC(n2cc(C(=O)NCc3ccccc3)nn2)C1	1%
CN1C[C@@H](NC(=O)NC2CCCCC2)C[C@H]1c1nc(Cc2ccccc2)no1	-6%[70.6 µM]
NC(=O)CN1CCOC(Cc2cccc(C(F)(F)F)c2)C1 (centres undefined)	6%
CCCc1cc(CNC(=O)c2ccc(N3CCCC(CNC(C)=O)C3)nc2)on1 (centres undefined)	8%
COc1cccc(CC(=O)N2CCCC3(C2)NC(=O)N(Cc2ccccc2)C3=O)c1 (centres undefined)	-18%
CCOC(=O)C1(Cc2ccccc2C)CCCNC1 (centres undefined)	2%
Cn1ncc(N2CCC(C(=O)NCC3CCN(Cc4cccc(F)c4)CC3)C2)cc1=O (centres undefined)	10%
Cc1cccc(-c2ccccc2C(=O)N2CCC3(CCCN(C)C3=O)C2)c1 (centres undefined)	-3%
Cc1n[nH]c(C)c1C(N)C(=O)N1CCCN(CCCN2CCCC2)CC1 (centres undefined)	7%
CCc1ccc(S(=O)(=O)N2CCC(Oc3ncccc3C(=O)N(C)C)C2)cc1 (centres undefined)	-1%
O=C(COc1ccccc1)NC[C@H]1COCc2nc3cc(F)ccc3n21	?
F[C@@H]1CN(Cc2cnc3ccccc3c2)C[C@@H]1OCc1nc2ccccc2[nH]1	?
COc1cccc(CC2(CO)CCCNC2)c1 (centres undefined)	6%
CCCNC(=O)c1nnn2cc(C)[nH]c(=O)c12	4%
CC1(c2cccnc2)N(Cc2ccccc2)C(=O)OC12CCN(C(=O)COc1ccccc1)CC2 (centres undefined)	1%
O=C(NCC1CC1)c1cn(C2CN(C(=O)NCC3CCCO3)C2)nn1 (centres undefined)	2%
Cc1ccc(C(=O)N2CCC(Oc3ncccc3C(=O)N3CCCCC3)C2)cc1F (centres undefined)	-8%
Cc1ccc(C(CC(=O)N2CCCCC2)c2cn(C)c3ccccc23)cc1 (centres undefined)	-18%
CC(=O)N1CCCC(c2nn(C)c(=O)n2C(C)C)C1 (centres undefined)	-1%
O=C(c1ccc(N2CC3CC(C2)[C@H]2CCCC(=O)N2C3)nc1)N1CCc2ccccc2C1 (some centres undefined)	3%
COc1ccc(C(=O)N2CC[C@H](c3nnc(-c4ccccc4)o3)C2)cc1	7%[70.6 µM]
CC(CCc1ccccc1)NC(=O)Cn1cccc1-c1nc(-c2ccc3c(c2)OCO3)no1 (centres undefined)	-1%
Cc1ccccc1CCN1CCC(CN(C(=O)c2cnn(C(C)C)c2)C2CCCC2)CC1	-9%
CCOC(=O)c1ccc(NC(=O)Cn2nc3c(cc2=O)CCCCC3)cc1	4%
Fc1ccc(-c2cc(CC3(NCC4CCCCC4)COC3)no2)cc1	?
Cc1ccc(-c2nnc(C3CN(C(=O)c4cccc(C)c4)CC34CCOCC4)o2)cc1 (centres undefined)	5%
O=C(NC[C@H]1O[C@@H](CC(=O)N2CCOCC2)[C@H](O)[C@@H]1O)Nc1ccc(F)cc1F	-8%[70.6 µM]
Oc1ccc(-c2nc(C3CC3)nc3c2CCN(CC2CCCCC2)CC3)cc1	-4%
CCOc1ccc2c(n1)CCN(C(=O)Cc1ccccc1C)C2	0%
O=C(NC1CCN(c2cnn(Cc3ccccc3)c(=O)c2)CC1)C1CCOCC1	-2%
Cn1cnc2cc(C(=O)N3CCC4(CC3)OCCCC4O)ccc21 (centres undefined)	9%
COc1ccccc1C(=O)N1CCCN(c2cc(-c3ccc(Br)cc3)[nH]n2)CC1	?
CCNC(=O)[C@@H]1C[C@H](NC(=O)c2cc(C)nn2C)CN1C(=O)c1cc[nH]c1	10%

# 3 entries already listed, ordered by SMILES length, low to high.
SMILES	hNpr1 antagonist
C=CCN1CCC2(CCC1=O)CN(C1CCN(CC)CC1)CCN2C (centres undefined)	-1%
COc1cccc(CC(=O)Nc2ccc3c(N4CCCCC4)ncnc3c2)c1	?
CN1CCN(C2CCOC3(CCN(S(=O)(=O)c4cn(C)cn4)CC3)C2)CC1 (centres undefined)	17%

# Next part
SMILES	hNpr1 antagonist
O=C1CN(C(=O)C2CNCC23CCOCC3)CCN1 (centres undefined)	4%
CCOC(=O)C1CCN(C(=O)C2COC3(CCCCC3)N2C(=O)c2cccc(Cl)c2)CC1 (centres undefined)	5%
CN(C)C[C@@H]1CN(Cc2ccccc2)C[C@H]1NC(=O)c1cnn(C)c1	-9%
Cc1ccc(C(=O)N2CCC(N3CCCC3=O)CC2)cc1O	2%
CC(C)(C)C(=O)Nc1nc2c(s1)C[C@@H]1[C@](C)(CO)[C@H](O)CC[C@@]1(C)[C@@H]2CC(=O)O	1%[70.6 µM]
CN1CC(=O)N(CC(=O)N2CCC3(CC2)[C@H](O)C[C@@H]3OCCO)C1=O	3%
COc1ccccc1-c1ncc2c(n1)OCCN(Cc1ccc(F)cc1F)C2=O	-3%[70.6 µM]
CN(Cc1ccccc1C(F)(F)F)C(=O)c1ccccc1Cl	0%[70.6 µM]
O=C(NCC1CCOCC1)Nc1ccccc1Cl	1%
COc1cc2c(cc1-c1nccn1-c1ccc(NC(C)=O)cc1)OCCO2	6%
COc1ccc(Cl)cc1NC(=O)CCC1CCCN(C(=O)CCCN2CCCC2=O)C1 (centres undefined)	3%
O=C(COc1ccc(Cl)cc1)N1CCC(Cc2nc(-c3ccccc3)no2)CC1	14µM*
O=c1cc(N2CCOCC2)oc2c(-c3cncnc3)nccc12	3%[70.6 µM]
O=C([C@@H]1C[C@H](F)CN1C(=O)Nc1cccc(F)c1)N1CCOCC1	1%
COCCn1ncc(N2CCCC(CC(=O)NCc3cccs3)C2)cc1=O (centres undefined)	6%
COc1ccc(CNC(=O)N2CCCCCNC(=O)[C@@H]3CCCC[C@@H]32)cc1	6%
O=C(c1ccc(F)cc1F)N1CCN(c2cc(-c3cccs3)[nH]n2)CC1	-13%
COC(=O)C1=CN(CC(=O)NCCCc2ccccc2)S(=O)(=O)N=C1C	5%

# A section of the results above:
SMILES	hNpr1 antagonist
Cc1ccc(C(=O)NC2CCc3nnc(C4CC4)n3CC2)c(=O)[nH]1 (centres undefined)	-1%
Cc1ccccc1CCC(=O)N1CCC2(CC1)C(C(=O)O)CC(=O)N2C (centres undefined)	16%
Cc1ccc(C2(O)CCN(c3cc(C(F)(F)F)ccn3)CC2)nc1	-14%
CCCN1C(=O)C(CC(=O)NC(C)CC)Sc2ncccc21 (centres undefined)	3%
Cc1cnc(C)n1C1CCN(S(=O)(=O)c2ccc(C#N)cc2)CC1	8%
CN(C)c1nccnc1OC1CCN(C(=O)c2ccnn2C)C1 (centres undefined)	4%
O=C(NCC1CC1)c1cccc(OC2CN(C3CCN(Cc4ccccc4)CC3)C2)c1	-3%

# Some of the compounds tested. The share of hits here may be higher or lower than overall.
